High-throughput results deposited in PubChem BioAssay by several laboratories.
PABP polyA inh – PABP-poly(A) binding inhibition; P11940; PABP-poly(A) RNA binding, fluorescence polarization; inhibition, % at 35 µM; 1% of 290,000 active; AID 2014;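 active means 50% or more with normal probe brightness, or confirmed in later tests; about a fifth of its hits are not listed in these tables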;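 further: calls also rest on retests at 20 µM and on dose response follow-up; controls were probe without protein and protein plus probe with vehicle; some compounds called inactive have numbers as strong as hits; many hits fall short of the cut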
eIF4H inh – inhibitors of RNA binding by human eIF4H. Q15056. eIF4H fluorescence polarization binding assay. inhibition, % at 35 µM. 0.94% of 290,000 active;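 active means 50% or more with normal probe brightness, or confirmed in later tests; about a fifth of its hits are not listed in these tables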;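 further: calls also rest on retests at 20 µM and on dose response follow-up; 0% = protein and probe with vehicle and 100% = probe without protein; strong numbers were not always called active; many hits fall short of the cut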
MT1-MMP act inh – blocks activation of human MT1-MMP. P50281. HT1080 RFP-PRO-GFP cells, GFP/RFP ratio fluorescence, overnight; percent of plate control window, DMSO zero. GFP/RFP ratio change, % at 20 µM. 0.061% of 360,000 active. AID 651647;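 active means GFP/RFP ratio change of at least 30% with cell ATP level not reduced by more than half and red fluorescence within 50% of control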; further: strong numbers were not always called active
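Assay system: RFP-PRO-GFP reporter HT1080 cells; read-out basis: GFP/RFP fluorescence ratio; benchmarks: DMSO wells and RFP-L50D-GFP cells; doses: 20 µM single dose, 1% DMSO; schedule: overnight cell settling, then overnight compound exposure, 37 °C, 5% CO2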
UUG fidelity – alters start codon recognition fidelity in yeast | 0.13% of 350,000 active | activity score, % at 18.7 µM | AID 602363 | S. cerevisiae UUG-firefly luciferase reporter, luminescence/redox ratio;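 active means replicate mean at a twofold rise or more, about +100% in these data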;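 further: firefly luciferase made from a UUG start codon reports start codon fidelity; reporter light over untreated wells divided by growth signal over untreated wells; some hits fall short of that in this replicate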
Rce1 inhib – blocks yeast Ras-converting enzyme; yeast membranes, quenched prenylated peptide cleavage fluorescence; 0.27% of 290,000 active; calls only; Q03530;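 active means fall in fluorescence gain of 50% or more versus controls, with final raw signal at or below 3038400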;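 further: plate controls were neutral control wells for no effect and wells lacking membranes for full effect; tested at 10 µM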
Target sequence (Q03530 whole entry, looked up): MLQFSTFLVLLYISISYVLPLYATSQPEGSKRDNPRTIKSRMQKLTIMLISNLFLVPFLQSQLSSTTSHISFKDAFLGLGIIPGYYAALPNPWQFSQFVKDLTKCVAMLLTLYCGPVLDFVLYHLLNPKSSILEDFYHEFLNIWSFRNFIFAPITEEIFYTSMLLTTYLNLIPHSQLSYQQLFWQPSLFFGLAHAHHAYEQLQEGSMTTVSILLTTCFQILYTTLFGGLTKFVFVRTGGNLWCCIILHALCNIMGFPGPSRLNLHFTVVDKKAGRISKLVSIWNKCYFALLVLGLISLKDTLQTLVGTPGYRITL
HIV Env fusion – inhibitors of HIV Env-mediated cell fusion; 1.1% of 360,000 active; inhibition, % at 12.3 µM; HeLa-JRFL Env/CEM21 cell fusion, luciferase;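 active means mean replicate inhibition score of at least 50 and every replicate individually at or above 50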;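 further: 0% = plate neutral controls and 100% = maraviroc near 300 nM; one replicate is shown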
CSC inhib – blocks cancer stem cells; cancer stem cell-like cells viability, luminescence; inhibition, % at 7.5 µM; 1.1% of 300,000 active; AID 2717;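 active means mean at 75% or more and at least half the replicates too; tested in HMLE shEcad cells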;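 further: 0% = median of negative and 100% = median of positive control wells; the first replicate is given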
MT1-MMP act inh RFP – recorded beside MT1-MMP act inh, whose call it bears; RFP signal change, %; measured here: RFP expression control read;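 0 = vehicle wells; hits needed this value within 50% of zero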
Starred values were filed as active, the others as inactive; i = inactive; x = no result given; + = active, no number.

SMILES	PABP polyA inh	eIF4H inh	MT1-MMP act inh	MT1-MMP act inh RFP	UUG fidelity	Rce1 inhib	HIV Env fusion	CSC inhib
COCCNC(=O)c1c(N)n(-c2ccccc2)c2nc3ccccc3nc12	8	-4	5	-1	3	i	x	17
Cc1nn(-c2ccccc2)nc1C(=O)OCC(=O)N1CCCCC1C (stereo not given)	x	x	-1	-4	-16	x	-1	3
CCc1ccc(OCC(=O)Nc2ccc(S(=O)(=O)N3CCCC3)cc2)c(Br)c1	0	0	2	0	-14	i	22	3
COc1ccc(CNC(=O)COC(=O)c2ccccn2)cc1	4	-6	-2	3	x	i	6	-3
CCN=C1SC(C(=O)Nc2ccc(Cl)c(Cl)c2)CC(=O)N1CC (stereo not given)	7	0	-2	0	-10	x	26	8
COc1cccc(N(C(=O)Cn2nnc3ccccc32)C(C(=O)NCc2ccco2)c2cccnc2)c1 (stereo not given)	10	6	1	3	-9	i	x	x
O=C(/C=C/c1cccc([N+](=O)[O-])c1)Nn1c(-c2ccccc2F)nc2ccccc2c1=O	7	-3	-3	-5	x	i	-5	8
COc1ccc(C(=O)Nc2ccc(NC(=O)c3cnccn3)cn2)cc1	0	1	-2	-5	-6	i	x	9
CCOC(=O)C1(CCOc2ccccc2)CCN(Cc2ccccc2O)CC1	x	x	-2	0	7	i	28	40
Cc1c(N=NC2=C(O)CCCC2=O)c(=O)n(-c2ccccc2)n1C	-4	16	3	2	x	i	7	7
O=C(NCCO)C(=O)c1c(-c2ccc(Cl)cc2)cc2ccccn12	8	4	-4	-1	x	i	-28	8
CCC1(CC)NC(=O)N(CC(=O)Nc2ccc(OCc3ccccc3)cc2)C1=O	x	x	4	1	13	x	-1	18
COc1cc(/C=C2\C(=N)N3N=C(S(C)(=O)=O)SC3=NC2=O)cc(OC)c1OCCOc1ccc(C)cc1	26	3	2	-3	3	i	9	8
COc1ccccc1N1CCN(c2ccc3c(c2)S(=O)(=O)c2cccc(C(=O)NCc4ccc(F)cc4)c2C3=O)CC1	x	x	-3	-1	-9	x	-20	x
CCOc1ccc(OCC)c(NC(=O)CN2CCN(c3cccc(C)c3)CC2)c1	2	-2	-4	-18	-15	i	x	x
CC(C)(C)CC(=O)Nc1cc2c3c(c1)CC(=O)N3CCC2	-1	-2	-3	2	x	i	-5	-4
CCc1ccc(OCC(=O)NC(C)(C)C)cc1	-20	2	1	3	x	i	0	-5
CCCn1c2ccccc2c2cnn(CC(=O)NCCCN3CCCC(C)C3)c(=O)c21 (stereo not given)	3	2	3	0	-6	i	1	1
O=C(N/N=C/c1ccc(O)cc1)c1[nH]c2ccc(Br)cc2c1-c1ccccc1	-10	-10	13	-1	x	i	-279	51
Cc1ccc(C)c(C(O)c2ncc(-c3ccccc3F)[nH]2)c1 (stereo not given)	x	x	3	-2	-22	x	10	x
COc1cc(/C=N/NC(=O)COc2ccc(C)cc2)ccc1OC(=O)c1cccs1	0	0	8	1	-4	i	-17	16
CC(C)(C)Nc1nc(C(N)=O)nc(N2CCOCC2)n1	-9	-8	-6	11	-20	i	28	4
CC(=O)c1c(C)[nH]c(C(=O)COc2cc(C)cc(C)c2)c1C	-4	1	-1	-17	x	i	23	3
COCc1cc(=O)[nH]c2cc(NC(=O)C3CC3)c(C)cc12	8	-6	2	4	1	i	0	5
Cn1c(N)c(S(=O)(=O)N2CCN(c3ccccc3Cl)CC2)c(=O)n(C)c1=O	10	-1	2	0	-8	i	14	-28
The list goes on:
SMILES	PABP polyA inh	eIF4H inh	MT1-MMP act inh	MT1-MMP act inh RFP	UUG fidelity	Rce1 inhib	HIV Env fusion	CSC inhib
c1ccc(CNc2nc(N3CCN(Cc4ccccc4)CC3)nc3ccccc23)cc1	-6	-3	-3	-11	-26	+	10	98*
COc1cc(NC(=O)C2CC(c3ccccc3O)=NO2)cc(OC)c1OC (stereo not given)	x	x	7	3	10	x	-11	x
Cc1ccc(NC(=O)C2CCC(CNC(=O)[C@@H]3Cc4ccccc4CN3)CC2)c(C)c1 (stereo not given in full)	8	-6	-2	-7	-5	i	-4	-10
Cc1cc(OCCCn2ccnc2)ccc1[N+](=O)[O-]	8	1	2	-8	-7	i	-3	58
O=C(Cn1nnc(N2CCCC2)n1)N/N=C/c1ccc(Cl)cc1	2	-4	1	1	x	x	1	-4
c1ccc2c(c1)nnn2Cc1nnc2sc(-c3ccc4c(c3)OCCO4)nn12	-5	-5	-4	-8	-6	i	-8	-4
C/C(=N\Nc1ccc(C)c(Cl)c1)c1cccnc1	10	-14	-3	-2	-3	i	-10	4
O=S(=O)(c1ccc(Br)cc1)N1CCCc2ccccc21	4	1	0	-5	-2	i	7	38
COc1ccc2c(c1)c(=O)c(C(=O)O)c(-c1ccc3c(c1)OCO3)n2C	-2	-5	5	11	x	i	x	x
Cn1c(=O)c2cn(Cc3ccc(Cl)cc3)cc2n(C)c1=O	-8	3	-4	-7	0	i	17	0
C=CCOc1cccn2c(N(C)C(=O)c3ccncc3)c(CC)nc12	x	x	-4	2	-19	x	-19	x
O=C(N/N=C(\c1ccccc1)c1cccnc1)c1cccc(F)c1	1	9	3	-7	-22	i	20	109*
Cc1cc(C(=O)NC(C)C2CCCO2)no1 (stereo not given)	-1	2	-2	1	-19	i	-6	2
COCCn1c(COc2ccc(Cl)cc2)nnc1SCC(N)=O	7	-12	2	3	-12	i	x	-8
COc1ccc(CNC(=O)CSc2ncnc3nc[nH]c23)cc1	-4	8	2	8	-18	i	-34	-4
c1ccc(CN2CCCC3(CCCN(Cc4nc(COc5ccccc5)no4)C3)C2)cc1 (stereo not given)	-4	4	1	1	x	i	-11	9
Cc1ccc(OCC(=O)Nc2ccc3c(c2)C(=O)N(CCC(=O)O)C3=O)cc1	1	-8	-1	-4	-9	i	3	-12
CCN(CC)S(=O)(=O)c1ccc2c(c1)c(=O)c(C(=O)NCCOC)cn2C	-2	-6	-2	4	-5	i	-56	4
NC(=S)Nc1cnc2ccccc2c1	4	-2	5	4	-22	i	x	-8
COc1ccc(CCNC(=O)c2cc(C(=O)c3cc(Cl)ccc3O)cn(CCc3ccc(OC)cc3)c2=O)cc1	-11	-8	4	-8	-9	i	11	-12
Cc1coc(C)c1C(=O)CC1(O)C(=O)N(CCc2ccccc2)c2ccccc21 (stereo not given)	3	1	-3	-1	-15	i	-105	4
O=C(CCC(=O)N1CCN(S(=O)(=O)c2ccc3ccccc3c2)CC1)Nc1cc(Cl)cc(Cl)c1	10	8	-6	-11	x	i	85*	8
CCNc1nc(NC(C)C)nc(NS(=O)(=O)c2ccc(Cl)cc2)n1	-5	-9	0	-1	-29	i	-36	-9
COc1ccc(Cl)cc1C(=O)NNC(=S)NC1CCCCC1	-3	2	2	3	-4	i	1	-9
CCOC(=O)C1=C(N)N(c2ccc(N3CCCCC3)cc2)C(=O)C1	12	-7	0	2	-4	i	x	-9
(continued)
SMILES	PABP polyA inh	eIF4H inh	MT1-MMP act inh	MT1-MMP act inh RFP	UUG fidelity	Rce1 inhib	HIV Env fusion	CSC inhib
O=C(Nc1ccc([N+](=O)[O-])cc1)N1CCCCCC1	-4	1	0	-2	2	i	6	14
CC(C)(C)NS(=O)(=O)c1ccc(C(=O)Nc2ccc3c(c2)OCO3)cc1	1	-9	0	-2	-16	i	5	-6
CCN(CC)CCNC(=O)c1cn(CC)c2ccc(S(=O)(=O)N(C)C3CCCCC3)cc2c1=O	6	-3	-3	-1	-10	i	14	6
Cc1ccc2[nH]c(C)c(CC(=O)O)c2c1	47	34	-3	-1	-11	i	x	-8
CCOc1cccc(-c2nn3c(-c4ccccn4)nnc3s2)c1	1	-1	1	0	-27	i	-121	-12
CC(=O)N1CCN(C(=O)c2ccc3c(c2)S(=O)(=O)c2ccccc2C3=O)CC1	10	8	-1	0	-1	i	-4	11
Cc1ccc(C)c(-n2c(SCC(N)=O)nnc2-c2ccccn2)c1	6	8	3	1	-1	i	x	2
COc1ccc(C(C)(C)C)cc1NC(=O)COC(=O)C1=NNC(=O)CC1	x	x	2	4	-13	x	0	-14
CCOc1cc(C=O)ccc1OCC(N)=O	7	1	-2	4	x	i	-16	4
COc1cccc(C2C3(C#N)C(N)=NC(OC)(OC)C23C#N)c1 (stereo not given)	6	-12	1	5	-11	i	x	-9
Cc1cc(/C=C2\SC(=O)N(C)C2=O)c(C)n1-c1ccc(S(N)(=O)=O)cc1	19	1	-2	-1	-10	i	-1	-2
CN(CCCC(=O)Nc1ccc(OC(F)F)cc1)S(=O)(=O)c1ccc(F)cc1	-4	-10	-1	-11	-13	i	-5	-3
COc1cc(C(=O)Oc2c(CN3CCOCC3)cc(Cl)c3cccnc23)cc(OC)c1OC	2	11	6	7	-34	i	x	20
CCC(C)[C@H](NC(=O)C1CC(=O)N(c2ccc3c(c2)OCCO3)C1)C(=O)N1CCCCC1 (stereo not given in full)	4	-6	-2	-1	-2	i	-7	-4
COc1ccccc1NC(=O)CNC(=O)c1ccc(F)cc1	17	25	3	1	-9	i	x	-7
Oc1ccc(Br)cc1-c1ccnn1-c1ccccc1	-2	8	-5	-15	-12	i	5	69
O=C(Nc1ccccc1C(=O)N1CCOCC1)c1ccncc1	1	-12	-5	4	-6	i	x	-7
CCCCN(C)C(=O)CSc1nc(NCc2ccc(OC)cc2)c2ccccc2n1	-7	-10	-6	-7	-5	i	-10	4

Of the compounds above, these have a Cl atom.
SMILES	PABP polyA inh	eIF4H inh	MT1-MMP act inh	MT1-MMP act inh RFP	UUG fidelity	Rce1 inhib	HIV Env fusion	CSC inhib
CCN=C1SC(C(=O)Nc2ccc(Cl)c(Cl)c2)CC(=O)N1CC (stereo not given)	7	0	-2	0	-10	x	26	8
O=C(NCCO)C(=O)c1c(-c2ccc(Cl)cc2)cc2ccccn12	8	4	-4	-1	x	i	-28	8
Cn1c(N)c(S(=O)(=O)N2CCN(c3ccccc3Cl)CC2)c(=O)n(C)c1=O	10	-1	2	0	-8	i	14	-28
O=C(Cn1nnc(N2CCCC2)n1)N/N=C/c1ccc(Cl)cc1	2	-4	1	1	x	x	1	-4
C/C(=N\Nc1ccc(C)c(Cl)c1)c1cccnc1	10	-14	-3	-2	-3	i	-10	4
Cn1c(=O)c2cn(Cc3ccc(Cl)cc3)cc2n(C)c1=O	-8	3	-4	-7	0	i	17	0
COCCn1c(COc2ccc(Cl)cc2)nnc1SCC(N)=O	7	-12	2	3	-12	i	x	-8
COc1ccc(CCNC(=O)c2cc(C(=O)c3cc(Cl)ccc3O)cn(CCc3ccc(OC)cc3)c2=O)cc1	-11	-8	4	-8	-9	i	11	-12
O=C(CCC(=O)N1CCN(S(=O)(=O)c2ccc3ccccc3c2)CC1)Nc1cc(Cl)cc(Cl)c1	10	8	-6	-11	x	i	85*	8
CCNc1nc(NC(C)C)nc(NS(=O)(=O)c2ccc(Cl)cc2)n1	-5	-9	0	-1	-29	i	-36	-9
COc1ccc(Cl)cc1C(=O)NNC(=S)NC1CCCCC1	-3	2	2	3	-4	i	1	-9
COc1cc(C(=O)Oc2c(CN3CCOCC3)cc(Cl)c3cccnc23)cc(OC)c1OC	2	11	6	7	-34	i	x	20

Three successive entries from above, for reference:
SMILES	PABP polyA inh	eIF4H inh	MT1-MMP act inh	MT1-MMP act inh RFP	UUG fidelity	Rce1 inhib	HIV Env fusion	CSC inhib
Oc1ccc(Br)cc1-c1ccnn1-c1ccccc1	-2	8	-5	-15	-12	i	5	69
O=C(Nc1ccccc1C(=O)N1CCOCC1)c1ccncc1	1	-12	-5	4	-6	i	x	-7
CCCCN(C)C(=O)CSc1nc(NCc2ccc(OC)cc2)c2ccccc2n1	-7	-10	-6	-7	-5	i	-10	4

Random draw from the library; 2.9% or so of the library scored in one or more.
